Screening results deposited in PubChem by several laboratories.
eIF4H FP inh: inhibitors of RNA binding by human eIF4H. Q15056. inhibition, % at 35 µM. 290,000 compounds, 0.94% hits. eIF4H fluorescence polarization binding assay;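 active = 50% or more with normal probe brightness, or confirmed in later tests; inconclusive = above 50% with abnormal brightness, or retests that disagree; inactive = below 50% or failed in later tests; about a fifth of its hits are not listed in these tables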;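 also: calls also rest on retests at 20 µM and on dose response follow-up; 0% = protein and probe with vehicle and 100% = probe without protein; strong numbers were not always called active; many hits fall short of the cut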
MT1-MMP act inh: MT1-MMP (human) activation inhibition; P50281; HT1080 RFP-PRO-GFP cells, GFP/RFP ratio fluorescence, overnight; percent of plate control window, DMSO zero; GFP/RFP ratio change, % at 20 µM; 360,000 compounds, 0.061% hits;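 active = GFP/RFP ratio change of at least 30% with cell ATP level not reduced by more than half and red fluorescence within 50% of control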; also: strong numbers were not always called active
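Assay system: HT1080 RFP-PRO-GFP cells | Dosing: 20 µM single dose, 1% DMSO | Incubation: Cells overnight before dosing, compound overnight, 37 °C, 5% CO2 | Evaluation: GFP/RFP fluorescence ratio | Control set: DMSO-only wells and HT1080 RFP-L50D-GFP cell wells as references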
CSC inhib: cancer stem cell inhibition; cancer stem cell-like cells viability, luminescence; inhibition, % at 7.5 µM; 300,000 compounds, 1.1% hits; AID 2717;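 active = mean at 75% or more and at least half the replicates too; inconclusive = mean and replicates disagree; tested in HMLE shEcad cells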;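 also: 0% = median of negative and 100% = median of positive control wells; the first replicate is given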
Rce1 inhib: blocks yeast Ras-converting enzyme; Q03530; yeast membranes, quenched prenylated peptide cleavage fluorescence; calls only; 290,000 compounds, 0.27% hits; AID 2563;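 active = fall in fluorescence gain of 50% or more versus controls, with final raw signal at or below 3038400; inconclusive = same 50% fall but final raw signal above 3038400; inactive = fall in fluorescence gain under 50%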;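 also: plate controls were neutral control wells for no effect and wells lacking membranes for full effect; tested at 10 µM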
Target sequence (Q03530 whole entry, looked up): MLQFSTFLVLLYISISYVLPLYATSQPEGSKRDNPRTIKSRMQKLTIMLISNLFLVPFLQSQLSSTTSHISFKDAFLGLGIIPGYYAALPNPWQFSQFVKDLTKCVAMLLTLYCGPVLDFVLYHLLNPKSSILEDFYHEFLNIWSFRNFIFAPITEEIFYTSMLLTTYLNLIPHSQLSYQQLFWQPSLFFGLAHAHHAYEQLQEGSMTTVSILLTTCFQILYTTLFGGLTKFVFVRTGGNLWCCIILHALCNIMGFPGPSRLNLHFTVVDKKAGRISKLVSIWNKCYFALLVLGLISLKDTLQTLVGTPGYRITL
PABP FP inh: blocks human PABP binding to poly(A) RNA; P11940; fluorescence polarization; inhibition, % at 35 µM; 290,000 compounds, 1% hits;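 active = 50% or more with normal probe brightness, or confirmed in later tests; inconclusive = above 50% with abnormal brightness, or retests that disagree; inactive = below 50% or failed in later tests; about a fifth of its hits are not listed in these tables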;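 also: calls also rest on retests at 20 µM and on dose response follow-up; controls were probe without protein and protein plus probe with vehicle; some compounds called inactive have numbers as strong as hits; many hits fall short of the cut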
Target sequence (P11940 whole entry, looked up): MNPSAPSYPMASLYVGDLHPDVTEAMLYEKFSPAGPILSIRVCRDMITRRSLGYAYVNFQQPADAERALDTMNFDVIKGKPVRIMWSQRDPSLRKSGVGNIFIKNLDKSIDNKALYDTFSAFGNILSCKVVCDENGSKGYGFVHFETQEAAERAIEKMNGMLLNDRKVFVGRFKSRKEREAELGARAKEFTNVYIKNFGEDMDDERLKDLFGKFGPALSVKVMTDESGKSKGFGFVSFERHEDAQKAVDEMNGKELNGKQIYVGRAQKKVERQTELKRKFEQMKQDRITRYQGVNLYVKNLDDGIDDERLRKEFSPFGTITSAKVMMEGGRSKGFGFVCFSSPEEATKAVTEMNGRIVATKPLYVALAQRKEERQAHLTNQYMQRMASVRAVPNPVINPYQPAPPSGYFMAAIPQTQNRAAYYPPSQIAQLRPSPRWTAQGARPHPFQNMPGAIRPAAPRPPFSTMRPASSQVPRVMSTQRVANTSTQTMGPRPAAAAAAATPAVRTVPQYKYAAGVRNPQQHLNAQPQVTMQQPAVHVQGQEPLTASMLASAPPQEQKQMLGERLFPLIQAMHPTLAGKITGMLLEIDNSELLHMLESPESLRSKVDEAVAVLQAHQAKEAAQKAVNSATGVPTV
HIV Env fusion: blocks HIV Env-driven cell-cell fusion. 360,000 compounds, 1.1% hits. inhibition, % at 12.3 µM. HeLa-JRFL Env/CEM21 cell fusion, luciferase. AID 651610;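 active = mean replicate inhibition score of at least 50 and every replicate individually at or above 50; inconclusive = only one of the two criteria met; inactive = mean below 50 and not all replicates reaching 50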;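 also: 0% = plate neutral controls and 100% = maraviroc near 300 nM; one replicate is shown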
Yeast UUG start: alters start codon recognition fidelity in yeast | AID 602363 | activity score, % at 18.7 µM | S. cerevisiae UUG-firefly luciferase reporter, luminescence/redox ratio | 350,000 compounds, 0.13% hits;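 active = replicate mean at a twofold rise or more, about +100% in these data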;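 also: firefly luciferase made from a UUG start codon reports start codon fidelity; reporter light over untreated wells divided by growth signal over untreated wells; some hits fall short of that in this replicate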
eIF4H FP inh retest: second read-out of eIF4H FP inh, no call of its own (marks repeat the call); inhibition, %; compound at 20 µM; confirmation average;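 mean of two retest wells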
PABP FP inh retest: recorded beside PABP FP inh, whose call it bears; inhibition, %; compound at 20 µM; confirmation repeats;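 mean of two retest wells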
MT1-MMP act inh RFP: further read-out of MT1-MMP act inh, marked with its call; RFP signal change, %; measured here: RFP expression control read;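 0 = vehicle wells; hits needed this value within 50% of zero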
Starred values were filed as active, the others as inactive; i = inactive; ? = inconclusive; · = no result given; & = joins results of further samples. Some of the compounds tested; rates above refer to the full screens.

SMILES | eIF4H FP inh | MT1-MMP act inh | MT1-MMP act inh RFP | CSC inhib | Rce1 inhib | PABP FP inh | HIV Env fusion | Yeast UUG start | others
Cc1nc(-c2c(-c3ccc(O)cc3O)noc2C(F)(F)F)cs1 | -13 | -6 | -25 | 4 | i | -12 | · | -6
CC(=O)Nc1ccc(S(=O)(=O)Nc2nc3ccccc3nc2Nc2cccc(O)c2)cc1 | 0 | 1 | 7 | 2 | i | 1 | 6 | ·
S=C(Nc1ccccc1)c1ccccn1 | -7&-5 | 2 | 6 | -5 | i | 9&-10 | · | ·
CCn1cc(C(=O)NCCCN2CC(C)CC(C)C2)c2cc(OC)c(OC)cc2c1=O (configuration not stated) | -5 | -2 | 0 | 6 | i | -1 | 7 | -24
O=C(O)c1ccc2c(c1)C(=O)N(c1cccc(-c3nc4ccccc4s3)c1)C2=O | 0 | 2 | 5 | -10 | · | 11 | -12 | -4
CCN(CC)CCOc1ccc(Br)cc1 | 2 | 2 | 2 | -3 | i | 0 | -14 | -21
Cc1ccccc1OCC(=O)Nc1nnc(-c2ccncc2)s1 | -9 | 0 | 1 | -3 | i | 7 | -7 | ·
CCC1C(=O)N=C(SCC(=O)Nc2ccccc2)NC1=O (configuration not stated) | -8 | 0 | 3 | -7 | i | -8 | · | -12
Cc1ccc(S(=O)(=O)CC(=O)Nc2cc(C)on2)cc1 | -1 | 2 | 0 | 6 | i | 2 | -29 | -6
COc1ccc(NC(=O)c2c(NC(=O)CNCc3ccco3)sc3c2CCC3)cc1 | -8 | -8 | -6 | -2 | i | -2 | · | -12
CCOCCOC(=O)C(C)Oc1ccc(Oc2nc(Cl)ccc2Cl)cc1 (configuration not stated) | -13 | -1 | 0 | -7 | i | -16 | -8 | ·
Cc1ccc(S(=O)(=O)N(C)C)cc1NC(=S)NC1CCCC(C)C1C (configuration not stated) | 8 | 2 | -8 | -2 | i | -2 | -12 | -29
CCc1nnc(NC(=O)CSc2sc3c(O)cc(=O)[nH]c3c2C#N)s1 | 90* | -7 | 3 | -6 | i | 76* | 13 | -2
CC(=O)Nc1ccc(NC(=O)c2ccccc2CC[N+](=O)[O-])cc1 | -4 | -1 | -3 | -2 | i | 2 | · | -14
Cc1cccnc1C1=NOC(Cc2ccccc2)C(=O)N1CCOc1ccc(F)cc1 (configuration not stated) | · | 3 | -2 | · | · | · | -7 | -2
CC(=O)N1c2ccc(S(=O)(=O)N3CCCCC3)cc2CC1C(=O)Nc1ccc(F)cc1C (configuration not stated) | -11 | -3 | -2 | -5 | i | 4 | 3 | -6
N#CCC(=O)Nc1ccc(C(=O)NCCC(c2ccccc2)c2ccccc2)cc1 | -1 | 2 | -1 | -3 | i | 4 | 9 | -16
CN(C)CCSc1nc(N)c2c3c(sc2n1)CN(C)CC3 | ? | -1 | 5 | 7 | i | 46 | · | 4
CCOC(=O)C(C)Sc1nc(C2CC2)cc(C(F)(F)F)c1C#N (configuration not stated) | -6 | -4 | -2 | -8 | i | -6 | · | ·
C=CCn1cc(CN2CCC(C(=O)Nc3ccc(Oc4cccnc4)cc3)CC2)c(C)n1 | 1 | 1 | 0 | 0 | i | -4 | 4 | -21
CC1CCN(C(=O)CCNS(=O)(=O)c2ccccc2)CC1 | 7 | -8 | 0 | -6 | i | 1 | -5 | -15
CC(=O)C1=C(c2ccccc2)NC(=O)NC1c1ccccc1OCC(=O)NCc1ccccc1 (configuration not stated) | 3 | -8 | -6 | -19 | i | 3 | -31 | 0
COc1ccccc1N1CCN(S(=O)(=O)CCNC(=O)C2CC(=O)N(c3ccccc3)C2)CC1 (configuration not stated) | -8 | 3 | -7 | 5 | i | 17 | -3 | -14
S=C(NCC1CCCO1)N1CCN(Cc2ccccc2Cl)CC1 (configuration not stated) | 4 | -2 | -3 | -11 | i | 8 | 26 | -18
Cc1ccc(NC2CC(=O)N(c3cccc([N+](=O)[O-])c3)C2=O)cc1 (configuration not stated) | -6 | -1 | 0 | 39 | i | -2 | -19 | ·
COc1ccc(N2CCN(C(=S)NCc3ccccc3)CC2)cc1 | 3 | 2 | 3 | -5 | i | 2 | 8 | 1
COc1ccc(-c2csc3nc(-c4cccnc4)nc(N4CCC(C(N)=O)CC4)c23)cc1OC | 8 | 0 | -1 | -3 | i | -1 | -9 | ·
CCCCNC(=O)CC1S/C(=N/N=C/c2ccc(OC)cc2)NC1=O (configuration not stated) | 10* | 0 | 2 | -7 | i | 84 | -6 | · | eIF4H FP inh retest=78*;PABP FP inh retest=46
CCC(=O)NC(=S)Nc1ccc(NC(=O)c2ccc(OC)cc2)cc1 | 5 | 6 | 1 | -14 | i | 19 | -7 | ·
Cc1ccc2nc(-c3cccs3)oc(=O)c2c1 | -4 | 2 | 0 | -4 | i | 5 | -5 | -17
CCN1C(=O)/C(=C2\SC(N3CCOCC3)=NC2=O)c2ccccc21 | 1 | 0 | -3 | · | i | 7 | -40 | -4
O=C(CC1SC(=O)N(Cc2ccc(Cl)cc2)C1=O)Nc1nccs1 (configuration not stated) | -2 | 3 | 2 | 10 | i | 7 | 4 | -15
O=C1[C@H](Cc2ccccc2)NCC=CC[C@H](c2ccc(Cl)cc2)N1Cc1ccccc1 | · | -2 | -2 | · | · | · | 39 | -14
COC(=O)Cn1cc(/C=C(/C#N)C(=O)N2CCOCC2)c2ccccc21 | 1 | 0 | 1 | -19 | i | -7 | -4 | ·
Oc1ccccc1N1CCN(c2nc(-c3cccs3)nc3ccccc23)CC1 | 4 | 1 | -1 | 38 | i | 0 | -8 | ·
CCOC(=O)CCC(=O)Nc1cccc([N+](=O)[O-])c1 | 2 | 4 | 5 | -18 | i | -13 | 7 | -12
CCN(CC)C(=O)C1=C(C)N(CCCN2CCCC2=O)C(=O)C(CC(=O)NC(c2ccccc2)c2ccccc2)C1 (configuration not stated) | · | -1 | 2 | · | · | · | -37 | 19
CCOC(=O)c1c(NC(=O)COC(=O)Cn2cnc3ccccc32)sc(C)c1C | 5 | 9 | -1 | 20 | i | 5 | -60 | -18
CC1(C(=O)OCC(=O)Nc2ccc(Cl)cn2)CC1(Cl)Cl (configuration not stated) | · | 1 | 1 | -14 | · | · | · | -5
CCOC(=O)C1=C(c2ccccc2)Nc2c(c(=O)n(C)c(=O)n2C)C1c1ccc(O)c(OC)c1 (configuration not stated) | -7 | -1 | -1 | -9 | i | 1 | -54 | -19
COC1=CC2(O)CCCC2=CC1=O (configuration not stated) | -3 | 8 | 5 | -6 | i | 14 | -32 | -6
COc1cc(OC)cc(-c2c(-c3cccs3)c3cc(-c4ccc(SC)cc4)ccc3n2C)c1 | · | -1 | -1 | 17 | · | · | · | 2
Cc1ccc(N2C(N)=NC(N)=NC2(C)C)c(C)c1 | 7 | 3 | 2 | -5 | i | 5 | · | -19
O=C(c1ccccn1)C1CCCN(Cc2nc(Cc3cccc(F)c3)no2)C1 (configuration not stated) | -2 | 3 | -4 | -4 | i | -2 | 11 | 21
OCC1(CCOc2ccccc2)CCN(C2Cc3ccccc3C2)CC1 | 7 | -3 | -2 | · | · | -4 | 3 | 3
CC1CN(C)C(C)C/C1=N/Oc1ccccc1[N+](=O)[O-] (configuration not stated) | -1 | -1 | 0 | -7 | i | 5 | 12 | 7
Cc1ccc(C)c(Cn2c3ccccc3c3cnn(CC(=O)NCCCN4CCOCC4)c(=O)c32)c1 | -6 | -1 | -2 | 6 | i | -2 | 3 | 13
O=C(CSc1nnc(-c2cccc(S(=O)(=O)N3CCOCC3)c2)n1C1CCCCCC1)NCc1ccccc1 | 4 | -3 | -5 | -11 | i | 0 | -20 | 16
COc1nc(N)c(C#N)c(-c2ccc(N(C)CCC#N)cc2)c1C#N | -1 | 2 | -6 | 23 | i | 4 | 7 | 0
Cc1oc(-c2cccs2)nc1CS(=O)CC(=O)NCc1ccc2c(c1)OCO2 (configuration not stated) | -13 | 1 | 3 | 2 | i | -3 | 21 | -4
COCc1cc(=O)[nH]c(SC)n1 | -2 | 1 | -3 | 0 | i | -2 | -2 | ·
Cn1c(CNC(=O)Cc2ccc3c(c2)OCO3)nnc1SCc1ccccc1 | -10 | 2 | 4 | 0 | i | 4 | 7 | -8
O=C(COc1ccccc1[N+](=O)[O-])Nc1ccc(CN2CCOCC2)cc1 | 2 | 3 | 4 | -10 | · | 4 | 9 | -9
Cc1ccc(NC(=O)COc2nsnc2N2CCOCC2)cc1Cl | -10 | -6 | -8 | · | i | 4 | 9 | 19
CCc1c(C)nc2cc(-c3ccccc3)[nH]n2c1=O | -5 | -9 | -6 | -10 | i | -1 | -39 | -8
Cc1ccc(-c2csc3ncnc(N4CCN(C)CC4)c23)cc1C | -2 | -14 | -14 | 9 | i | -1 | 21 | 15
COc1cccc(-c2ccc(CN3C(C)C(=O)N(Cc4cn(Cc5ccco5)nn4)CCS3(=O)=O)cc2)c1OC (configuration not stated) | · | 1 | -5 | · | · | · | -5 | 3
N#Cc1c(NC(=O)c2nc3ncccn3n2)sc2c1CCCCC2 | 14 | 6 | 3 | -13 | i | 28 | · | -24
COc1cc(NC(=O)COC(=O)CC(C)(C)C)c(C)cc1[N+](=O)[O-] | -9 | 4 | 2 | 14 | i | -9 | 9 | ·
CC(=O)CCc1oc2ccccc2c1-c1ccccc1 | -1 | -2 | -3 | -3 | i | 12 | 15 | 7

Arranged by SMILES length (descending): part of the list above.
SMILES | eIF4H FP inh | MT1-MMP act inh | MT1-MMP act inh RFP | CSC inhib | Rce1 inhib | PABP FP inh | HIV Env fusion | Yeast UUG start | others
O=C(CSc1nnc(-c2cccc(S(=O)(=O)N3CCOCC3)c2)n1C1CCCCCC1)NCc1ccccc1 | 4 | -3 | -5 | -11 | i | 0 | -20 | 16
CCOC(=O)C1=C(c2ccccc2)Nc2c(c(=O)n(C)c(=O)n2C)C1c1ccc(O)c(OC)c1 (configuration not stated) | -7 | -1 | -1 | -9 | i | 1 | -54 | -19
CCn1cc(C(=O)NCCCN2CC(C)CC(C)C2)c2cc(OC)c(OC)cc2c1=O (configuration not stated) | -5 | -2 | 0 | 6 | i | -1 | 7 | -24
CCOCCOC(=O)C(C)Oc1ccc(Oc2nc(Cl)ccc2Cl)cc1 (configuration not stated) | -13 | -1 | 0 | -7 | i | -16 | -8 | ·
Cc1ccc(N2C(N)=NC(N)=NC2(C)C)c(C)c1 | 7 | 3 | 2 | -5 | i | 5 | · | -19

Other results follow:
SMILES | eIF4H FP inh | MT1-MMP act inh | MT1-MMP act inh RFP | CSC inhib | Rce1 inhib | PABP FP inh | HIV Env fusion | Yeast UUG start | others
O=C(N/C=N/O)C1=NOC(CNc2ncc(C(F)(F)F)cc2Cl)C1 (configuration not stated) | -7 | 6 | 5 | · | i | 3 | · | -22
Cc1cccc(C(=O)Nc2c(C#N)c(C)c(C)n2Cc2ccccc2)c1 | 3 | -2 | 2 | 2 | i | 3 | · | -5
CN(C)CCCn1c(-c2ccccc2)nc(=S)c2c1CCCC2 | 3 | 9 | -2 | · | i | 2 | -13 | -1
CC1=C(C(=O)Nc2cc(C(=O)N3CCN(c4cccc(C)c4)C(C)C3)ccc2C)SCCO1 (configuration not stated) | 7 | 1 | -4 | 2 | i | 3 | 5 | 3
O=C(CNCc1ccccc1)Nc1ccccc1-c1ccccc1 | -3 | 1 | 2 | -4 | i | 1 | 0 | -9
